Screening results (PubChem BioAssay)
CatB mix inh = human cathepsin B inhibition by mixtures | Purified cathepsin B, AMC dipeptide fluorescence, compound mixtures | inhibition, %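 (ten-compound pools at 5 µM per compound and 50 µM total)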 | 0.06% of 62,000 active; in the data active = inhibition above about 22%, passing the limit was not always enough;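 also: 0% = enzyme without compound and 100% = no enzyme blank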
MKP-1 inh = blocks human MKP-1 phosphatase activity; AID 374; recombinant MKP-1, OMFP hydrolysis fluorescence; P28562; 0.15% of 65,000 active; inhibition, %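 (compounds tested at a single concentration somewhere between 10 and 100 µM)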;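 active = inhibition above about 50%, limit read from the data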;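 also: 0% = DMSO max control wells and 100% = wells with enzyme stopped by NaOH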
CatB inh = human cathepsin B inhibition; P07858; purified cathepsin B, fluorogenic substrate, fluorescence; inhibition, %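 (tested at 10 µM)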; 0.1% of 63,000 active; AID 453; in the data active = inhibition above about 21%;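 also: 0% = enzyme with no compound and 100% = no enzyme blank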
AP complement = alternative pathway complement inhibition, orthogonal assay | Human serum alternative complement pathway, LPS-coated ELISA, C3 deposition; tested in compound mixtures | inhibition, % at 5 µM | 0.08% of 62,000 active | AID 1235;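 active = inhibition above 30% in each of the two pooled mixtures holding the compound, so the lower value exceeds 30%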;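 also: 0% = serum in Mg-EGTA without compound and 100% = EDTA serum blank; some compounds past the cut are filed as inactive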
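Test system: human serum alternative complement pathway, C3 deposition on LPS-coated wells; also added: Plate-bound LPS; doses: 5 µM per compound in ten-compound mixtures; schedule: 1 h at 37 °C; detection: Anti-C3 ELISA, OD 450 nm; evaluation: percent inhibition of C3 deposition onto LPS; repeats: two pool placements per compound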
Cdc25B block = inhibitors of human Cdc25B phosphatase; inhibition, %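 (compounds tested at 10 µM final in the well)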; P30305; 0.1% of 65,000 active; recombinant Cdc25B, OMFP fluorescence Ex485/Em525; in the data active = inhibition above about 50%
Target sequence (P30305 whole entry, looked up): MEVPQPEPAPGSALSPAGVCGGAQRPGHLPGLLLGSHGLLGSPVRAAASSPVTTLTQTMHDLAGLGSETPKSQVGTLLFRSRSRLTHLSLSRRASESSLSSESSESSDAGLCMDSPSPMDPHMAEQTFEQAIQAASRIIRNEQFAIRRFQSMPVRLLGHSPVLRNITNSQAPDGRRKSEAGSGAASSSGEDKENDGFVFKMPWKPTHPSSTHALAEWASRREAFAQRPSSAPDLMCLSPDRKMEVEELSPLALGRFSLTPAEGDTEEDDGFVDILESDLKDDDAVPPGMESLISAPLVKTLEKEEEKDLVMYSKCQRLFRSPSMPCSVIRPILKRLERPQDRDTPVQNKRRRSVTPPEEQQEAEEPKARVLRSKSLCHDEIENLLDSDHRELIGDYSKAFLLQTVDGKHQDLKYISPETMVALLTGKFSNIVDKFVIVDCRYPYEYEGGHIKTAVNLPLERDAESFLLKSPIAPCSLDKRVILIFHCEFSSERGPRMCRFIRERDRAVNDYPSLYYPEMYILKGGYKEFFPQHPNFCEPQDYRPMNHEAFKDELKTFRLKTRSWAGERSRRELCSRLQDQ
Ecoli tolC = blocks growth of E. coli BW25113 tolC mutant; OD615; growth inhibition, % at 10 µM (by protocol); 2.2% of 65,000 active;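 active = growth inhibition at or above a cutoff equal to the mean over every tested compound plus 3 SD, cut at about 60% in these data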;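 also: growth measured after 20 h incubation at 37 °C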
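test system = E. coli BW25113 ΔtolC::kan bacteria | medium = LB with kanamycin 50 µg/mL | signal = OD at 615 nm | schedule = 37 °C, 20 h exposure | evaluation = % inhibition of E. coli growth | compound dosing = one dose of 10 µM final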
Starred values were filed as active, the others as inactive; . = no result given; & = joins results of further samples. This is a subset; count on the stated rates, not on these rows.

SMILES	CatB mix inh	MKP-1 inh	CatB inh	AP complement	Cdc25B block	Ecoli tolC
CC1(C)SC2[C@H](NC(=O)C(NC(=O)N3CCNC3=O)c3ccccc3)C(=O)N2C1C(=O)O (some centres not stated)	3.9	-8.0	4.0	-0.2	-7.9	8.9
NCc1ccc(S(N)(=O)=O)cc1	4.8	-16.8	8.0	9.4	-22.3	19.0
CN(C)CCOC(c1ccccc1)c1ccccc1 (tested in a mixture with another compound)	4.7	-20.0	.	2.5	-11.0	4.2
O=c1n(CCCN2CCN(c3cccc(Cl)c3)CC2)nc2ccccn12	-6.9	-5.4	0.7	5.8	-22.2	7.8
O=C(C1CCCCC1)N1CC(=O)N2CCc3ccccc3C2C1 (configuration not stated)	-2.8	-19.1&-12.6	0.9	19.7	-3.3&-3.1	11.1&10.1
CSc1ccc2c(c1)N(CCC1CCCCN1C)c1ccccc1S2 (configuration not stated)	6.6	-22.1	0.4	-3.2	-13.5	17.5
COc1ccc(Cl)cc1C(=O)NCCc1ccc(S(=O)(=O)NC(=O)NC2CCCCC2)cc1	-1.5	3.2	1.1	6.5	-15.4	2.1
Nc1nc2c(ncn2COCCO)c(=O)[nH]1	0.5	-17.4	.	11.0	-15.2	-5.3
Nc1nc(Cl)nc2c1ncn2[C@@H]1O[C@H](CO)[C@@H](O)[C@H]1O	6.0	-12.6	3.0	20.0	-14.6	9.8
CN(C)CCCN1c2ccccc2Sc2ccc(Cl)cc21	-11.8	-19.6	4.1	21.5	-19.9	13.1
O=C(O)CCCc1ccccc1	-1.8	-3.0	-2.5	8.3	-16.5	-0.3
Cn1c(=O)c2[nH]cnc2n(C)c1=O	1.4	-6.7	0.9	8.1	-9.6	7.8
O=C(CCCN1CC=C(n2c(=O)[nH]c3ccccc32)CC1)c1ccc(F)cc1	2.4	-4.4	5.0	-7.7	-14.4	5.1
CC(=O)Oc1ccc(C(c2ccc(OC(C)=O)cc2)c2ccccn2)cc1	9.3	-11.1	.	4.2	-17.2	10.2
NS(=O)(=O)c1cc2c(cc1Cl)NC=NS2(=O)=O	3.4	-14.1	8.4	12.1	-8.9	20.8
CC(C)OC(=O)C(C)(C)Oc1ccc(C(=O)c2ccc(Cl)cc2)cc1	2.5	-21.0	.	0.5	13.3	18.4
c1coc(CNc2ncnc3nc[nH]c23)c1	2.2	6.3	-0.8	15.5	-7.4	-12.6
CN(C)CCCN1c2ccccc2CCc2ccc(Cl)cc21	-2.4	-42.5	-3.2	15.2	6.5	0.6
CCS(=O)(=O)CCn1c([N+](=O)[O-])cnc1C	4.6	-5.8	-0.5	-15.5	-16.0	3.6
CC(C)(C)c1ccc(C(O)CCCN2CCC(C(O)(c3ccccc3)c3ccccc3)CC2)cc1 (configuration not stated)	4.5	8.7	.	12.0	17.1	14.6
CN1[C@@H]2CC(OC(=O)[C@H](CO)c3ccccc3)C[C@H]1[C@@H]1O[C@@H]12 (some centres not stated)	1.6	-9.5	-1.8	7.9	-9.1	7.2
CNCCCC12CCC(c3ccccc31)c1ccccc12	4.0	-18.1	0.2	9.4	-6.4	9.5
CC(=O)Nc1c(I)c(NC(C)=O)c(I)c(C(=O)O)c1I	5.4	-16.4&7.7	5.7	1.3	-23.0&-6.4	9.0&-15.1
CN(C)c1nc(N(C)C)nc(N(C)C)n1	-3.0	-16.9	-0.1	13.4	-21.2	14.6
CCn1nc(C(=O)O)c(=O)c2cc3c(cc21)OCO3	6.8	-16.1	7.9	16.7	15.4	13.4
COC1=CC(=O)CC(C)C12Oc1c(Cl)c(OC)cc(OC)c1C2=O (configuration not stated)	0.9	-11.9	0.6	-9.0	-7.5	3.0

As entered above:
Reading for CSc1ccc2c(c1)N(CCC1CCCCN1C)c1ccccc1S2 (configuration not stated) under AP complement: -3.2
Reading for O=c1n(CCCN2CCN(c3cccc(Cl)c3)CC2)nc2ccccn12 under Cdc25B block: -22.2

Structures above with an NH in an aromatic ring:
SMILES	CatB mix inh	MKP-1 inh	CatB inh	AP complement	Cdc25B block	Ecoli tolC
Nc1nc2c(ncn2COCCO)c(=O)[nH]1	0.5	-17.4	.	11.0	-15.2	-5.3
Cn1c(=O)c2[nH]cnc2n(C)c1=O	1.4	-6.7	0.9	8.1	-9.6	7.8
O=C(CCCN1CC=C(n2c(=O)[nH]c3ccccc32)CC1)c1ccc(F)cc1	2.4	-4.4	5.0	-7.7	-14.4	5.1
c1coc(CNc2ncnc3nc[nH]c23)c1	2.2	6.3	-0.8	15.5	-7.4	-12.6
